StopGo reporter – High Throughput Screening for Foot and Mouth Disease Virus Antivirals; human cells with a luciferase reporter of 2A StopGo recoding; control for the full effect not named in the record; Potency, µM (titrated, usually from 57.9 µM), for the others: top-dose signal change, negative = less light; actives 1.2% (n = 410,000); active = well fitted falling curve with a large enough effect; inconclusive = small, poorly fitted or top-dose-only effect; inactive = no such curve, though single readings can be large or run the other way; tested in HEK293T cells; further: on the % scale 0 is the no-effect control and ±100 the full control effect; nearly all actives have a fitted effect of over 45% in size; luciferase light after 4 h
RE007 growth inh – qHTS Assay for Inhibitors of the HIV-1 protein Vpr; S. pombe RE007 Vpr strain, BacTiter-Glo ATP luminescence, 24 h; control for the full effect not named in the record; Potency, µM (series often up to 92.2 µM), inactives show at the highest dose activity change, negative = less growth; actives 0.21% (n = 360,000); AID 651644, 2012; active = well fitted falling curve with a large enough effect; inconclusive = small, poorly fitted or top-dose-only effect; inactive = no such curve, though single readings can be large or run the other way;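 further: on the % scale 0 is the no-effect control and ±100 the full control effect; nearly all actives have a fitted effect of over 50% in size; the assay follows cell death caused by Vpr and the record does not say whether a fall means rescue or toxicity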
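Fission yeast RE007 carrying one integrated HIV-1 vpr copy, seeded at OD 0.01 in PMG+AL medium with 23 nL pinned compound. Grown 24 h at 30 degrees; viability read by BacTiter-Glo luminescence after 5 min.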
Cruzain inh Det – qHTS Assay for Promiscuous and Specific Inhibitors of Cruzain (with detergent); Cruzipain (Trypanosoma cruzi), P25779; purified cruzain, Z-FR-AMC fluorescence, 0.01% Triton; Potency, µM, inactives show max response, negative = inhibition, usual class: inhibitors; actives 0.43% (n = 200,000);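 further: plate controls were neutral wells for no effect and buffer without enzyme for full effect; nearly all actives have a fitted effect of over 40% in size; top concentration of the series not given in the record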
Target sequence (P25779 123-467 limits assumed): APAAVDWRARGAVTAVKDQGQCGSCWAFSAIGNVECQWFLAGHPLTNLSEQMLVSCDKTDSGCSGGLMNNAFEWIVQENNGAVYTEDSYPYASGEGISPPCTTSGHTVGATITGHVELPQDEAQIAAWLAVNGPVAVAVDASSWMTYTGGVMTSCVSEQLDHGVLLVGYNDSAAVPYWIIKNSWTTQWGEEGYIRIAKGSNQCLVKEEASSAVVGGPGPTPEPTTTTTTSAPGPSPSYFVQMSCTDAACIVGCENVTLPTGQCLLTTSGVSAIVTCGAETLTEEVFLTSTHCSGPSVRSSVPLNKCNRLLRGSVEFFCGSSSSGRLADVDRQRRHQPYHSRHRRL
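Detergent-containing run (0.01% Triton X-100) in acetate buffer pH 5.5 with 5 mM DTT: enzyme at 1.5 nM final, 15 min compound preincubation at room temperature, then 2 uM Z-FR-AMC substrate. Activity taken as 60 s fluorescence increase at 360/450 nm.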
SARS PLP yeast – qHTS of Yeast-based Assay for SARS-CoV PLP | S. cerevisiae expressing SARS-CoV PLpro, growth rescue; control for the full effect not named in the record | Potency, µM (series often up to 32.9 µM), without a hit: top-dose activity, positive = growth rescue | actives 0.19% (n = 330,000); active means well fitted rising curve with a large enough effect; inconclusive means small, poorly fitted or top-dose-only effect; inactive means no such curve, though single readings can be large or run the other way; further: 0% is about no effect; nearly all actives have a fitted effect of over 55% in size; growth read by luminescence after 48 h
Cruzain inh noDet – qHTS Assay for Promiscuous and Specific Inhibitors of Cruzain (without detergent) | Cruzipain (Trypanosoma cruzi), P25779 | purified cruzain, Z-FR-AMC fluorescence, no detergent | Potency, µM, for the others: max response, negative = inhibition, actives largely listed as inhibitors | actives 2.3% (n = 200,000);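 further: plate controls were enzyme without inhibitor for no effect and buffer without enzyme for full effect; nearly all actives have a fitted effect of over 40% in size; top concentration of the series not given in the record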
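Purified cruzain at 1.5 nM, pre-incubated 15 min with compound at room temperature in 100 mM sodium acetate pH 5.5, 5 mM DTT, 0.00005% Triton X-100. Reaction started with 2 uM Z-FR-AMC; AMC fluorescence increase over 60 s gives rate.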
NS1 function inh – qHTS Assay for Inhibitors of Influenza NS1 Protein Function; S. cerevisiae slowed by influenza A NS1, growth recovery by OD600; Potency, µM (top dose mostly 46.1 µM), for inactives: at the top dose activity, positive = more growth; actives 0.4% (n = 270,000); AID 2326, 2010; active means well fitted rising curve with a large enough effect; inconclusive means small, poorly fitted or top-dose-only effect; inactive means no such curve, though single readings can be large or run the other way; further: nearly all actives have a fitted effect of over 50% in size
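In this qHTS, NS1 from influenza A is expressed in budding yeast, where it slows growth. Cells are switched from glucose to 2% galactose medium (pH 6.0, -URA), treated with compound, and growth recovery is read at OD600.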
MARV entry inh – qHTS for inhibitors of binding or entry into cells for Marburg Virus; Marburg virus pseudotyped entry inhibition, cell reporter; control for the full effect not named in the record; about a third of the inactives were read at about 46 µM; Potency, µM (series often up to 37.8 µM), inactives show at the highest dose activity change, negative = inhibition, hits mostly inhibitors; actives 1.8% (n = 300,000); active = well fitted inhibition curve with a large enough effect; inconclusive = small, poorly fitted or top-dose-only effect, or effect the other way; inactive = flat fitted curve, though single readings scatter; tested in HEK293 cells; about a fifth of its hits are not listed in these tables; further: on the % scale 0 is the no-effect control and ±100 the full control effect; luciferase read-out
Lassa entry inh – qHTS for Inhibitors of binding or entry into cells for Lassa Virus; Lassa virus pseudotype entry inhibition, cell reporter; control for the full effect not named in the record; Potency, µM (doses to about 37.9 µM), inactives show at the top dose activity change, negative = inhibition, usual class: inhibitors; actives 1.2% (n = 300,000); active means well fitted inhibition curve with a large enough effect; inconclusive means small, poorly fitted or top-dose-only effect, or effect the other way; inactive means flat fitted curve, though single readings scatter; tested in HEK293 cells; further: on the % scale 0 is the no-effect control and ±100 the full control effect; nearly all actives have a fitted effect of over 50% in size; luciferase read-out
* hit, by the source's call; ? = inconclusive; . = no result given; [ ] = another dose, or the depositor's remark. Unless noted, the call rests on the fitted dose curve; in most records, active means well fitted curve in the direction sought with a large enough effect; inconclusive means small, poorly fitted or top-dose-only effect, or another doubt; inactive means no such curve, though single readings can be large; an effect the other way counts as inactive or inconclusive. Potency means the concentration at half of the fitted maximal effect.

SMILES,StopGo reporter,RE007 growth inh,Cruzain inh Det,SARS PLP yeast,Cruzain inh noDet,NS1 function inh,MARV entry inh,Lassa entry inh
CC12CN3CC(C)(CN(C1)C3c1ccc3c(c1)OCO3)C2=O (stereo not given),-21%,-14%,5.5%,2%,-9%,-1%,5%,1%
Cc1cccc(N(C(=O)CNC(=O)c2cccs2)C(C(=O)NC2CCCC2)c2ccncc2)c1 (stereo not given),-7%,7%,.,0%,.,-8%,-9%[46.1 µM],4%
CCCOc1cccc(C2/C(=C(/O)c3ccc4c(c3)CC(C)O4)C(=O)C(=O)N2CCN2CCOCC2)c1 (stereo not given),-11%,13%,.,0%,.,4%,3%[46.1 µM],5%[46.1 µM]
CC(NC(=O)C1CCN(S(=O)(=O)N2CCCCCC2)CC1)c1ccccc1 (stereo not given),-13%,-3%,0.6%,3%,-3%,-7%,-4%,-9%
Clc1ccc(-n2nnnc2-c2ccccc2)cc1Cl,-3%,9%,0.8%,-8%,-5%,-4%,-8%,-17%
Cc1cc(-c2nnc(CCC(=O)N(C)C(C)c3cccs3)o2)no1 (stereo not given),56%[activator],10%,.,-1%,.,2%,.,.
Cn1cnnc1SCC(=O)Nc1ccc(N2CCOCC2)cc1,27%,7%,.,0%,.,.,29%[46.1 µM],-15%
c1coc(CN(Cc2cccs2)Cc2nnnn2C2CCCCC2)c1,1%,-5%,-4.5%,-22%,-4%,-50%,-28%,-17%
Cc1c(C(=O)c2ccc([N+](=O)[O-])cc2)c(=O)n(C)c(=O)n1C,2%,-5%,.,0%,.,-3%,8%[46.1 µM],-1%[46.1 µM]
O=C(Nc1ccc2c(c1)OCO2)c1cccc(Cl)c1,30%[activator],-15%,-2.0%,-11%,-4%,-18%,?,?
CCOc1ccccc1NC(=O)C1CCN(S(=O)(=O)c2ccc3[nH]c4c(c3c2)CCCCC4)CC1,-5%,.,-1.6%,.,13µM*,.,.,-13%[46.1 µM]
CCc1c(C)nc2nncn2c1NCc1ccc(OC)cc1,-12%,.,-0.7%,.,7%,.,5%[46.1 µM],-1%[46.1 µM]
CC(C(=O)N1CCCc2ccccc21)N1CCN(S(=O)(=O)c2ccccc2F)CC1 (stereo not given),-26%,35%,-1.9%,2%,-1%,-10%,?,-19%
O=C(Nc1ccccc1)c1ccn[nH]1,20%,-3%,8.1%,-5%,-8%,-7%,?,3%
Cc1nc2ccccn2c1C(=O)Nc1ccc(Cl)cc1,32%[activator],11%,.,-4%,.,-5%,10%[46.1 µM],-22%
COc1cccc(C(=O)Nc2ccccc2C(=O)OCc2cc(=O)n3c(C)csc3n2)c1,-20%,.,0.3%,.,8%,.,.,21%[46.1 µM]
CC(C)C(=O)NNC(=O)c1ccccn1,4%,-3%,1.2%,-2%,-2%,-3%,?,?
COc1cnc(SC(C)C)[nH]c1=O,1%,-11%,.,1%,.,3%,-9%[46.1 µM],8%
Cc1cccc(C(=O)NC(C(=O)Nc2ccccc2N2CCOCC2)C(C)C)c1 (stereo not given),-12%,5%,.,-1%,.,.,-16%[46.1 µM],18%[46.1 µM]
CCC(c1ccccc1)c1nc(-c2cccnc2)no1 (stereo not given),6%,7%,-5.7%,6%,11%,-8%,-13%,?
N#C/C(=C\C=C\c1ccccc1[N+](=O)[O-])C(=O)NC1CCCCC1,25µM*,-3%,.,?,.,.,?,?
O=C(CCS(=O)(=O)c1ccc(Br)cc1)Nc1ccc(Br)cc1F,-25%,24%,-2.0%,9%,0%,7%,-5%,6%
CCOC(=O)c1c(C)[nH]c(C(=O)CSc2nnnn2-c2ccccc2)c1C,15%,-10%,5.3%,6%,-3%,-2%,-1%,?
O=C(NCc1cccc(Cl)c1)C(=O)Nc1ccc2nc3n(c(=O)c2c1)CCCCC3,-22%,.,2.1%,.,-2%,.,14%[46.1 µM],2%[46.1 µM]
COc1ccc(OCC(=O)Nc2ccc(N3CCN(C(=O)c4ccco4)CC3)cc2)cc1,-6%,-5%,.,-2%,.,1%,?,14%
CCN(CC)S(=O)(=O)c1ccc2c(c1)N(CC(=O)NCCCN1CC(C)CC(C)C1)C(=O)CO2 (stereo not given),0%,-6%,.,7%,.,-9%,.,.
CCN(CC)c1ccc2c(O)cc(=O)oc2c1,0%,0%,.,-5%,.,.,15%[46.1 µM],24%
Cc1cccc(Cn2c(SCc3ccc(C(=O)NCCc4ccccc4)cc3)nc3ccncc32)c1,-10%,.,-6.8%,.,-12%,.,-20%[46.1 µM],-24%[46.1 µM]
COc1cc(OC)c(S(=O)(=O)NC(C)C)cc1C(=O)O,-1%,2%,.,1%,.,-6%,.,.
NC(=O)C1CCN(C(=O)OCc2ccccc2)CC1,2%,0%,-1.3%,-1%,-6%,6%,9%,?
Cc1ccccc1OCC(=O)Nc1ccc2nc(SCCOc3ccccc3)sc2c1,-23%,.,3.4%,.,10%,.,0%[46.1 µM],11%[46.1 µM]
O=C(NC1CCSc2ccccc21)c1cccc(Cl)c1 (stereo not given),?,10%,.,-4%,.,10%,-22%[46.1 µM],16%[46.1 µM]
CC1CN(C(=O)c2cc3ccccc3cc2O)CC(C)O1 (stereo not given),6%,-5%,.,3%,.,.,21%,-29%
CCOc1ccc(-c2cnc3ccccc3n2)cc1,-77%,-9%,.,-1%,.,-35%,.,.
COc1ccc(C(=O)NCc2nnc(SCC(=O)NC3CCCC3)o2)cc1,9%,11%,.,0%,.,-9%,?,6%[46.1 µM]
CCn1c(SCC(=O)Nc2nc(C)cs2)nnc1-c1ccoc1C,-7%,17%,0.6%,3%,-3%,5%,-5%,-9%
Cc1ccccc1OCCSc1nc(C)c(Cc2ccccc2)c(=O)[nH]1,4%,.,1.2%,.,-6%,.,9%[46.1 µM],-1%[46.1 µM]
COc1ccc2nc(C)cc(Nc3ccc(Cl)c(Cl)c3)c2c1,?,.,-7.1%,.,-2%,.,.,?
COc1cc(/C=C/C(=O)OCC(=O)NC(=O)NC(C)C)cc(OC)c1OC,-11%,6%,.,0%,.,.,?,-12%[46.1 µM]
CC1(C)c2ccccc2C(=O)c2ccccc21,0%,18%,.,.,.,.,-6%,?
O=C(CNC(=O)c1sc2ccccc2c1Cl)NCc1ccc(F)cc1,1%,-1%,.,1%,.,.,?,-22%
CCNC(=S)Nc1cccc(S(=O)(=O)Nc2ccccc2OC)c1,-6%,23%,.,0%,.,4%,0%[46.1 µM],-38%[46.1 µM]
Cc1ccc(NC(=O)c2c(NC(=O)CCC(=O)O)sc3c2CCCCC3)cc1,28%,19%,.,-2%,.,9%,-17%[46.1 µM],?
COC(=O)C1=C(N)OC2=C(C(=O)CC(C)(C)C2)C1c1cccnc1 (stereo not given),0%,7%,-1.3%,3%,-1%,8%,?,16%
Cc1cc(OCC(=O)N[C@H](C(=O)O)c2ccccc2)c2c3c(c(=O)oc2c1)CCC3,-14%,0%,.,1%,.,30%,.,.
C#CCNc1ccncc1S(=O)(=O)NC(=O)NC(C)C,-12%,24%,2.5%,3%,8%,12%,-3%,1%
Cc1cc(NC(=O)CSc2nc(=O)n(CCCN(C)C)c3c2CCCC3)no1,10%,0%,.,0%,.,.,-15%,-2%
CN1C(=O)C(O)(CC(=O)c2ccncc2)c2ccccc21 (stereo not given),10%,-21%,4.0%,-2%,-6%,-2%,?,-25%
COc1ccc(-c2nc(CN3CCC(C(=O)N4CCc5ccccc54)CC3)c(C)o2)cc1OC,-19%,-20%,-8.8%,0%,-5%,5%,-2%,.
O=C(N/N=C/c1ccc(Br)s1)c1ccco1,30%[activator],-20%,.,-1%,.,-6%,?,?
COc1ccc(C2CC(c3ccccc3)=NN2C(=O)COC(=O)c2cnc(Cl)c(Cl)c2)cc1 (stereo not given),-17%,24%,-3.3%,19%,5µM*,6%,?,-13%
Cc1ccc(NS(=O)(=O)c2cccc(C(=O)n3ncc(C#N)c3N)c2)c(C)c1,-18%,0%,-5.0%,6%,5%,2%,6%,8%
Cc1ccc(-n2ncc3c(SCC(=O)Nc4cc(C)on4)ncnc32)c(C)c1,?,16%,.,5%,.,.,?,?
CCCCn1c(-c2ccc(C(C)(C)C)cc2)nc2cc3[nH]c(=O)c(C(C)C)nc3cc21,35µM*,8%,.,-12%,.,30%,.,.
O=C(CCCCCNC(=O)c1ccccc1)N/N=C/c1ccccc1,-3%,1%,2.5%,25%,5%,-1%,7%[46.1 µM],11%
CCn1cc(CNC(=O)c2cc(-c3ccc(C)cc3)nc3ccc(Br)cc23)c(C)n1,6%,.,-1.5%,.,?,.,-1%[46.1 µM],-10%[46.1 µM]

Continued.
SMILES,StopGo reporter,RE007 growth inh,Cruzain inh Det,SARS PLP yeast,Cruzain inh noDet,NS1 function inh,MARV entry inh,Lassa entry inh
COc1ccc(/C=C/c2c(-c3ccc(OC)cc3)oc3cccnc23)cc1,0%,-11%,.,-5%,.,15%,.,.
O=C(c1ccc([N+](=O)[O-])cc1)N1CCN(C2=NS(=O)(=O)c3ccccc32)CC1,-10%,-6%,.,2%,.,5%,-4%,-2%
O=C(NCC1CCCN(C(=O)NCc2ccccc2)C1)c1ccc2c(c1)OCO2 (stereo not given),21%,-8%,.,0%,.,0%,?,6%
CCCCCN(C(=O)CCC(=O)OCc1ccc(C(C)C)cc1)c1c(N)n(CCCC)c(=O)[nH]c1=O,3%,1%,.,0%,.,.,?,?
COc1ccc(CC(=O)N/N=C(\C)CC(=O)Nc2cccc(F)c2)cc1,28%,-19%,.,0%,.,-2%,4%[46.1 µM],-16%[46.1 µM]
Cc1sc2ncnc(OCC(=O)NC(C)C)c2c1C,-4%,27%,-0.6%,-2%,2%,7%,5%,3%
Cc1ccc(-c2csc(N(CCO)CCCn3c(C(F)(F)F)nc4cc(C(F)(F)F)ccc43)n2)cc1,-13%,12%,.,-11%,.,?,.,.
